# Mtb hypoxia rep: PubChem AID 1159583; M. tuberculosis hypoxia-regulated fluorescent reporter, fluorescence; fluorescence inhibition, % (no concentration beside the values); hit rate 0.1% among 300,000;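 active = 35 to 45% if threefold the growth effect, above 45% if 1.5-fold the growth effect; inactive = the rest, general growth blockers included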;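 note: wells of about 50 µL received 100 nL stock; 0% = vehicle wells and 100% = reference inhibitor wells; whole bacteria with a GFP reporter of the hypoxia response; strong numbers were not always called active; many hits fall short of the cut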
# ugtP null kill: growth inhibition of ugtP-null S. aureus, primary screen, RN4220 ugtP deletion, OD600. growth inhibition, % (concentration not given with the values). hit rate 0.54% among 330,000. 16 h; some inactives read as strong as hits;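 active = z-score under -3 and OD600 up to 0.15 on both plates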;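 note: plate controls were untreated wells for no effect and antibiotic for full effect; wells of about 80 µL received 100 nL stock; the first replicate is given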
# Autofluor counter: flagged as autofluorescent in microsphere protease counterscreen; compound autofluorescence counterscreen, microsphere flow cytometry; stronger effect = higher value; fluorescence intensity (no concentration beside the values); hit rate 3.1% among 360,000; AID 624483;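 active = at least 3 SD above the mean of all compounds, about 16000 in these data; inconclusive = too few beads counted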;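 note: 100 nL of 1 mM stock went into each well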
# BJeLR lethal: MLPCN primary cell-based screen for lethality selective to Ras in HRASV12 cells; BJeLR (HRASV12) viability, CellTiter-Glo ATP luminescence, 48 h; reference of the scale not given here; inhibition, % (no concentration beside the values); hit rate 0.17% among 300,000; AID 1554, 2009;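 active = replicate mean above 50%; inconclusive = above 50% but judged a plate artefact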;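 note: 50 nL library stock added to about 25 µL; numbers are from one replicate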
# PrP 5UTR inh: inhibition of PrP 5' UTR reporter expression | cell-based PrP 5' UTR mRNA reporter, plate reader | inhibition, % (no concentration beside the values) | hit rate 0.35% among 340,000 | AID 488862, 2010;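 active = every replicate at 50% or more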;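 note: 0 = median of the neutral control wells; tested in H4 reporter cells; numbers are from one replicate; inactives centre near -14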
# RN4220 kill: growth inhibition of S. aureus RN4220, primary screen, OD600 | 16 h | inhibition, % (no concentration beside the values) | hit rate 0.33% among 330,000;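 active = z-score of -3 or lower and OD600 up to 0.18 on both plates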;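 note: plate controls were untreated cells for no effect and reference antibiotic for full effect; stock transfer was 100 nL into about 80 µL; one replicate is shown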
# Mtb hypoxia rep growth: further read-out of Mtb hypoxia rep, marked with its call; growth inhibition, %; measured here: M. tuberculosis growth (absorbance);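 0% = vehicle and 100% = reference antibiotic; read after six days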
# Active calls of the source: *; u = inconclusive; x = not tested or not shown.
entry	compound	RN4220 kill	PrP 5UTR inh	BJeLR lethal	Mtb hypoxia rep growth
1	O=C(Nc1ccc(Br)cc1Cl)c1cnccn1	1.1	-7	-12	6
2	COc1cc(C2C3=C(CC(C)(C)CC3=O)N(C)C(=O)N2C)cc(OC)c1OC (stereo not drawn)	2.7	-31	-15	4
3	CC(C)OC(=O)CSc1nc(-c2ccc(F)cc2)nc2ccc(F)cc12	-0.5	16	-1	0
4	COc1ccc(CCn2ccc(O)c(Cc3ccc(Cl)cc3)c2=O)cc1OC	-0.1	-11	5	12
5	CCCCN1C(=O)N(c2ccc(Cl)cc2)C(C)(O)CC1(C)C (stereo not drawn)	2.5	-15	-4	-1
6	COC(=O)c1ccc(Cn2cc(/C=C\[N+](=O)[O-])c3ccccc32)o1	11	52*	-11	0
7	CCN(CC)CCNC(=O)c1ccc2c(=O)n(CCc3ccccc3)c(=O)[nH]c2c1	2.1	-4	0	11
8	O=C(CC1SC(=Nc2ccccc2)N(Cc2ccccn2)C1=O)Nc1cccc(Cl)c1 (stereo not drawn)	-0.5	9	-6	5
9	O=C(CCc1c[nH]c2ccccc12)NCc1ccncc1	-2.5	-12	-7	-2
10	Cc1cc(C)c(S(=O)(=O)N2CCN=C2c2ccccc2)c(C)c1	2.9	0	6	9
11	Cc1cc2ncc(S(C)(=O)=O)c(N)n2n1	2.6	-16	2	4
12	Fc1ccc(N2CCN(c3ccc4c(C(F)(F)F)cc(C(F)(F)F)nc4n3)CC2)cc1	3.8	-17	7	12

entry	ugtP null kill	Autofluor counter	Mtb hypoxia rep
1	-3	17512*	9
2	3	9873	-1
3	2	5924	3
4	-6	5227	-6
5	3	3177	6
6	-8	3192	10
7	6	7045	21
8	-6	2277	-9
9	8	4076	5
10	0	2555	-4
11	4	4321	14
12	-19	21176*	17

# Additional structures follow.
entry	compound	RN4220 kill	PrP 5UTR inh	BJeLR lethal	Mtb hypoxia rep growth
13	CCOc1ccc(Oc2c(C=NNC(=O)C3CC3)c(C)nn2-c2ccccc2)cc1	1.7	x	x	5
14	C=CCOc1c(Br)cc(CNn2nnnc2N)cc1OCC	2.4	-5	6	x
15	CN1CCN(C(=O)c2ccccc2N(Cc2ccccc2)S(C)(=O)=O)CC1	-1.3	-11	5	x
16	CSc1ccccc1NC(=O)CN(C)CC(=O)Nc1ccc(N2CCOCC2)cc1	0.2	-113	-15	11
17	COc1cc(C=NNC(=O)CNC(=O)c2ccc3c(c2)OCCO3)ccc1O	5.3	x	x	2
18	COc1ccc(NN=C(C#N)S(=O)(=O)C(C)(C)C)cc1	7.9	x	x	8
19	Nc1ccc(OCC(O)C[n+]2ccc(CCS(=O)(=O)[O-])cc2)cc1 (stereo not drawn)	-2.9	79*	0	2
20	CCOc1ccccc1C(=O)NCC(=O)N1CCN(Cc2ccc3c(c2)OCO3)CC1	-1.0	-11	x	2
21	COc1ccc(C2CCCN2C(=O)Nc2cccc(C(C)=O)c2)cc1OC (stereo not drawn)	1.2	3	-3	-3
22	CCCCNC(=O)c1sc(=S)n(-c2ccccc2OC)c1N	3.6	-28	3	11
23	C=CCCN(C(CC(C)C)C(=O)OC)S(=O)(=O)c1cc(Br)ccc1Br (stereo not drawn)	1.7	-11	-5	6
24	CC(=O)Nc1ccc(S(=O)(=O)N2CCC(C(=O)NCc3ccco3)CC2)cc1	0.0	-4	8	7

entry	ugtP null kill	Autofluor counter	Mtb hypoxia rep
13	-13	x	15
14	-2	4698	x
15	1	4837	x
16	2	3805	0
17	9	x	0
18	6	x	2
19	-14	4194	-11
20	0	3686	-1
21	12	2493	7
22	-6	9538	9
23	13	3976	16
24	3	4201	2

# Further entries:
entry	compound	RN4220 kill	PrP 5UTR inh	BJeLR lethal	Mtb hypoxia rep growth
25	C#CCOCCOCCOCCNc1nc(N2CCOCC2)nc(N2CCN(C(=O)[C@H](C)n3cc(CCCN=C(N)N)nn3)CC2)n1	x	-26	8	x
26	COCCn1c(SCC(=O)Nc2ccc(Cl)cn2)nc2ccccc21	2.1	x	-2	8
27	CCCNC(=O)C(Cc1ccc(Br)cc1)NC(=O)c1ccc(C#N)cc1 (stereo not drawn)	0.9	-1	x	3
28	NC(=O)COc1ncn(-c2ccccc2)n1	22	-8	-11	-1
29	CC(/C=N\NC(=O)Cn1c(C)nc2ccccc21)=C\c1ccccc1	x	-3	11	x
30	CCCNC(=O)c1ccc2c(=O)c(O)c(-c3ccc(C)cc3)[nH]c2c1	x	30	8	x
31	Cc1ccc(S(=O)(=O)N2CCCC(C(=O)NC3CC3)C2)cc1 (stereo not drawn)	-0.6	-15	6	8
32	NS(=O)(=O)c1ccc(NN=C2CCCCC2C2CCCCC2)c([N+](=O)[O-])c1 (stereo not drawn)	37	x	x	2
33	Cc1c(NC(=S)N/N=C/c2cccc(O)c2)c(=O)n(-c2ccccc2)n1C	x	-5	-2	x
34	COc1ccc(/C=C/C(=O)NC(=S)N2CCCCC2)cc1OC	2.6	15	0	6
35	Cc1ccc(CN2CCC(Oc3cccc(C(=O)N(C)CCN(C)C)c3)CC2)cc1C	3.0	-20	-1	14
36	CCn1c2ccccc2c2cc(CNCCCN3CCOCC3)ccc21	2.7	-24	-4	15

entry	ugtP null kill	Autofluor counter	Mtb hypoxia rep
25	x	3980	x
26	3	13824	2
27	-10	3012	-9
28	18	2502	-2
29	x	3406	x
30	x	3236	x
31	8	4837	5
32	8	x	8
33	x	9155	x
34	14	2876	18
35	4	3701	17
36	-7	5549	18

# Further compounds.
entry	compound	RN4220 kill	PrP 5UTR inh	BJeLR lethal	Mtb hypoxia rep growth
37	Cc1cc(C)n(C(C[N+](=O)[O-])c2ccc(Cl)cc2)n1 (stereo not drawn)	x	-19	8	x
38	COc1cc(C(=O)Nc2cc(C)c(OCC(=O)N3CCOCC3)c(C)c2)cc(OC)c1OC	6.3	-22	-6	4
39	CC1CCCCC1NC(=O)COC(=O)c1cc(=O)[nH]c2ccccc12 (stereo not drawn)	5.1	-27	x	6
40	CCN(CC)S(=O)(=O)c1ccc(NC(=O)CSc2nnc(-c3cccc(OC)c3)n2C)cc1	4.2	x	-14	6
41	O=S(=O)(c1ccc(Br)cc1)N1CCCC1	4.0	-8	2	-15
42	O=C(NC(=S)Nc1ccccc1)c1ccc(-c2ccccc2)cc1	-1.7	-36	-3	12
43	O=C(NCC(=O)N(CCN1CCOCC1)C(C(=O)NC1CCCC1)c1cccnc1)c1cccs1 (stereo not drawn)	7.6	-11	7	7
44	CCCCn1c(O)c(N=NC(=O)c2ccccc2NS(=O)(=O)c2cccs2)c2ccccc21	13	-35	0	-7
45	O=C(CCNS(=O)(=O)/C=C/c1ccccc1)NCCc1c[nH]c2ccccc12	1.6	-14	1	3
46	Cc1c(C(=O)N2CCN(c3ccccn3)CC2)sc2ncnc(N3CCN(c4ccccc4)CC3)c12	0.7	-1	-3	x
47	O=C(Cc1ccc(Cl)cc1)NCC(=O)N1CCCC1	-14	-13	1	5
48	Cc1cc(C)nc(NN=Cc2ccccc2)n1	-0.6	x	x	7

entry	ugtP null kill	Autofluor counter	Mtb hypoxia rep
37	x	3280	x
38	5	3206	3
39	3	7422	10
40	1	11587	8
41	11	3897	2
42	-10	2538	4
43	10	2446	2
44	2	14354	2
45	6	4118	2
46	9	4351	x
47	-5	2916	6
48	-4	x	2

# The list goes on.
entry	compound	RN4220 kill	PrP 5UTR inh	BJeLR lethal	Mtb hypoxia rep growth
49	Cn1c(SCC(=O)Nc2nccs2)nnc1C12CC3CC(CC(C3)C1)C2	2.2	-12	6	8
50	CCOC(=O)c1ccc(NC(=O)Nc2ncccc2C)cc1	5.0	-54	8	5
51	COc1ccc2nc(C(C)O)[nH]c2c1 (stereo not drawn)	3.7	-13	-14	-5
52	CN1/C(=C\C(=O)CSc2cccc[n+]2[O-])C(C)(C)c2ccccc21	3.1	2	-5	3
53	OC(CNCc1ccccn1)c1ccccc1 (stereo not drawn)	4.9	-16	-6	7
54	Cn1cc(/C=C/C(=O)c2ccccc2)c2ccccc21	11	-3	-2	3
55	CN1CCN(CC(=O)NN(Cc2ccccc2)c2ccccc2)CC1	3.2	-9	1	-3
56	O=C(c1ccco1)N1CCN(c2c([N+](=O)[O-])nn(-c3cccc(Cl)c3)[n+]2[O-])CC1	5.9	x	2	14
57	COC(=O)CN1C(=O)C(C)(C)Oc2ccc(C(=O)Nc3cccc(OC)c3)cc21	3.6	-28	-4	-4
58	CCOCCCNC(=O)C1CCC(CNS(=O)(=O)c2cccc3nsnc23)CC1 (stereo not drawn)	-2.5	-28	x	8
59	Cc1nc2cc(-c3ccccc3)nn2c(C)c1CCC(=O)N1CCN(c2ccccc2)CC1	2.7	9	-1	8
60	CC(=O)Nc1ccc(S(=O)(=O)Nc2cccc(-c3ccc4nncn4n3)c2)cc1	5.1	-8	-8	-1

entry	ugtP null kill	Autofluor counter	Mtb hypoxia rep
49	-3	7737	6
50	4	3070	8
51	9	u	-3
52	-3	4063	10
53	5	2232	7
54	0	6455	3
55	1	3577	14
56	8	4480	4
57	9	2841	-1
58	-6	9025	-6
59	-6	5145	3
60	3	2045	1

# Rewritten bar-delimited: entries from further up
entry | structure | RN4220 kill | PrP 5UTR inh | BJeLR lethal | Mtb hypoxia rep growth | ugtP null kill | Autofluor counter | Mtb hypoxia rep
53 | OC(CNCc1ccccn1)c1ccccc1 (stereo not drawn) | 4.9 | -16 | -6 | 7 | 5 | 2232 | 7
54 | Cn1cc(/C=C/C(=O)c2ccccc2)c2ccccc21 | 11 | -3 | -2 | 3 | 0 | 6455 | 3

# (more compounds)
entry	compound	RN4220 kill	PrP 5UTR inh	BJeLR lethal	Mtb hypoxia rep growth
61	COc1ccccc1C1CC(=O)Nc2cc(C)c(C)cc21 (stereo not drawn)	5.2	-18	12	-13
62	COc1ccccc1C(=O)NC(=O)COC(=O)Cc1n[nH]c(=O)c2ccccc12	1.0	-30	-4	-3
63	CCCCN1C(=O)C(=O)NCC1C(C)O (stereo not drawn)	1.8	x	x	-3
64	COc1cc(/C=N/Nc2nnc3c(n2)[nH]c2ccccc23)ccc1O	x	-48	-2	x
65	CCCc1ccc(S(=O)(=O)NCc2nnc(SC)n2C)cc1	0.5	-14	-12	8
66	CC1CCN(S(=O)(=O)c2ccc(F)c(C(=O)O)c2)CC1	-13	-35	9	15
67	C=CCSC1=C(C#N)C(c2ccccc2Cl)C(C(=O)c2cccs2)C(O)(C(F)(F)F)N1 (stereo not drawn)	11	-9	27	-2
68	Cc1ccc(C)c(-n2c(C)cc(C=NNC(=O)c3c(C)nc4cc(C)ccn34)c2C)c1	1.5	x	x	x
69	COc1cc(OC)c(NC(=O)c2cc(S(=O)(=O)N3CCOCC3)cn2C)cc1Cl	20	-6	-5	4
70	Cc1c(Br)c(C(F)(F)F)nn1CC(=O)NCC1CCCO1 (stereo not drawn)	1.9	-3	5	3
71	Cc1csc(NC(=O)CSc2nc(C(C)C)nc3c2c(=O)n(C)c(=O)n3C)n1	0.6	-8	0	9
72	CCN1CCN(C(c2cccs2)C(C)NC(=O)c2ccccc2OC)CC1 (stereo not drawn)	-9.4	-16	8	-5
73	CCN1CCN(S(=O)(=O)c2ccc3c(c2)OCCO3)CC1	5.6	1	-3	5
74	COCc1cc(C)n(CC(=O)NCC2CCCO2)c(=O)c1C#N (stereo not drawn)	3.2	-52	5	9

entry	ugtP null kill	Autofluor counter	Mtb hypoxia rep
61	5	3926	1
62	-1	u	1
63	0	x	2
64	x	10468	x
65	13	3412	8
66	1	2981	19
67	32	2550	3
68	-3	x	x
69	19	4535	0
70	8	5785	8
71	4	5385	7
72	-5	4804	3
73	19	3285	22
74	5	5820	-1

# Full records as entered above. Order of screens: RN4220 kill, PrP 5UTR inh, BJeLR lethal, Mtb hypoxia rep growth, ugtP null kill, Autofluor counter, Mtb hypoxia rep
# Listed for `COc1cc(OC)c(NC(=O)c2cc(S(=O)(=O)N3CCOCC3)cn2C)cc1Cl` → 20, -6, -5, 4, 19, 4535, 0
# Listed for `COCc1cc(C)n(CC(=O)NCC2CCCO2)c(=O)c1C#N` (stereo not drawn) → 3.2, -52, 5, 9, 5, 5820, -1
# Listed for `CCCCN1C(=O)C(=O)NCC1C(C)O` (stereo not drawn) → 1.8, x, x, -3, 0, x, 2
# Listed for `COc1ccccc1C(=O)NC(=O)COC(=O)Cc1n[nH]c(=O)c2ccccc12` → 1.0, -30, -4, -3, -1, u, 1

# Screening data deposited in PubChem BioAssay by several laboratories.

# Hits appear at their usual frequency; overall some 4% were active at least once.
